# Screening data (PubChem BioAssay)
# T cruzi inh: T. cruzi replication inhibition | T. cruzi beta-gal in NIH3T3, luminescence, 90 h | inhibition, % (no concentration beside the values) | 300,000 tested, 1.4% active;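 active means mean inhibition across valid replicates above about 55%, limit read from the data; inconclusive means mean below that limit but half or more replicates reach it; inactive means mean below it, under half of replicates reach it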;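 further: signal also drops with host cell toxicity which is not excluded here; 0% = plate median of DMSO wells and 100% = zero luminescence signal; higher percent means less beta-gal luminescence so fewer parasites; stock transfer was 50 nL into about 50 µL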
# Calb FLC: affects C. albicans growth with fluconazole; 300,000 tested, 0.57% active; C. albicans CaCi-2 (fluconazole-resistant clinical isolate) + fluconazole, Alamar Blue growth, 48 h; growth inhibition, % (test concentration not listed);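 active means most replicates above 75%; inconclusive means exactly half above 75%; inactive means most below 75%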;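 further: all wells also contain fluconazole at 8 µg/ml as a sub-toxic cotreatment; 0% = median of DMSO wells and 100% = median of geldanamycin control wells; wells of about 8 µL received 7.5 nL stock; the first replicate is given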
# MLL AF4-AF9 inh: MLL-AF4/AF9 protein interaction inhibition | P42568 | AlphaScreen, biotin-AF4 peptide binding to FLAG-AF9 | inhibition, % at 10 µM | 350,000 tested, 0.47% active | AID 651704;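 active means every replicate reaching a set inhibition limit, whatever the replicate mean, cut at about 25% in these data; inconclusive means mean inhibition reaches that limit but some replicates miss it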;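 further: 0% = plate neutral control median and 100% = total signal loss; the record names both 10 and 1 µM as test concentration; the first replicate is given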
# Target sequence (P42568 whole entry, looked up): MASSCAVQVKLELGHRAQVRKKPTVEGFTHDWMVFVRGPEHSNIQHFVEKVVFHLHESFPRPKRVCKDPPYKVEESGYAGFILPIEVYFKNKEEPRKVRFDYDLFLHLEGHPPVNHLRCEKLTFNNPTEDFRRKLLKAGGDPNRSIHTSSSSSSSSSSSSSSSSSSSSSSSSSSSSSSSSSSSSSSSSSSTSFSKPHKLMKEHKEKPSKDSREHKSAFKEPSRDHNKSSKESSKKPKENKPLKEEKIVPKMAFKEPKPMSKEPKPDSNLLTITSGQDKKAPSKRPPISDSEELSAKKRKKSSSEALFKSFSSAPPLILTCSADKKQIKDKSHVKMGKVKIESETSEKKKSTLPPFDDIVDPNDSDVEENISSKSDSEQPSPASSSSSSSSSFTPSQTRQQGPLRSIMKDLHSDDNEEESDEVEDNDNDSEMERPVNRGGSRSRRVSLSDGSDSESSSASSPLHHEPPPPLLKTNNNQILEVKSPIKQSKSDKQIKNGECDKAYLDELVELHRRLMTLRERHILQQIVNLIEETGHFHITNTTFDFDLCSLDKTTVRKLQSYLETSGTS
# FGF22 binding: FGF22 (human) thermal shift binding | Q9HCT0 | recombinant FGF22 thermal shift, SYPRO orange fluorescence; percent of sucrose octasulfate shift, DMSO zero | calls only at 9.99 µM | 340,000 tested, 1.5% active;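 active means melting point raised past a set limit in the mean and every replicate; inconclusive means no clear call; three in four hits are not shown here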
# Target sequence (Q9HCT0 whole entry, looked up): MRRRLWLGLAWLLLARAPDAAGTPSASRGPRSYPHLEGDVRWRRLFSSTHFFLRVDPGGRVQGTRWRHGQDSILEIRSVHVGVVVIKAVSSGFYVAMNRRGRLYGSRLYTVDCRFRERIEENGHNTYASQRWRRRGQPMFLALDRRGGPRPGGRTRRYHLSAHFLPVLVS
# Beta apoptosis: blocks beta cell apoptosis. INS-1E cytokine-induced death, ATP luminescence, 48 h; percent of positive-control rescue, neutral wells zero. protection from apoptosis, % (concentration not given with the values). 300,000 tested, 0.8% active. AID 435005;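 active means all replicates at 75% or more, or half of them and the mean; inconclusive means half reach 75% but not the mean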;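 further: 0% = cytokine-treated negative control wells and 100% = positive control rescue; higher means more ATP so stronger rescue from cytokine killing; wells of about 40 µL received 100 nL stock; the first replicate is given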
# RanGTP-Impb inh: disruptors of Ran-importin-beta complex formation – biochemical, FRET, CFP-Ran, YFP-importin-beta, homogeneous, primary screen; 300,000 tested, 1.1% active; cell-free CFP-Ran/YFP-importin-beta FRET ratio; inhibition, % (test concentration not listed); AID 2216;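 active means most replicates above 15%; inconclusive means exactly half above 15%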;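 further: 0% = DMSO wells and 100% = Ran loaded with GDP instead of GTP; wells of about 40 µL received 100 nL stock; the first replicate is given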
# ALR H2O2 inh: human ALR oxidase inhibition via reduced H2O2; P55789; purified ALR, DTT oxidation, H2O2 HRP-luminol luminescence; inhibition, % (concentration not given with the values); 290,000 tested, 3.8% active; AID 485317;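 active means mean and each replicate at 75% or more; inconclusive means only one of the two met; inactive means neither met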;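 further: stock transfer was 7.5 nL into about 7.5 µL; 0% = neutral wells and 100% = wells with inactivated enzyme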
# Target sequence (P55789 whole entry, looked up): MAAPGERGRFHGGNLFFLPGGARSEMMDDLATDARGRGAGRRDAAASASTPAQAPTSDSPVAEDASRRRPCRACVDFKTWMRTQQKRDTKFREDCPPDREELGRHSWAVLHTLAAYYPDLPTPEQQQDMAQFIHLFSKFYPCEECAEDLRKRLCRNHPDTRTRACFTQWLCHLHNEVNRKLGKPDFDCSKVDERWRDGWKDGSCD
# rRNA inh HTS: inhibitors of bacterial rRNA selective over humanized ribosomes; E. coli WT GFP vs humanized-ribosome RFP mutants, fluorescence, 24 h; stronger effect = lower value; DMSO median 0, no signal -100; GFP signal change (wild-type ribosome), % (test concentration not listed); 350,000 tested, 1.6% active; AID 720706;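 active means significant combined selectivity score with lowered wild-type GFP, culture density cut under 30%, mutant RFP and density less affected; inactive means any of these conditions unmet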; further: one replicate is shown; some compounds called inactive have numbers as strong as hits
# rRNA inh HTS OD600: recorded beside rRNA inh HTS, whose call it bears; OD600 change, %; measured here: OD600 growth;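 optical density of the mix in the first replicate; 0 = DMSO median and -100 = no signal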
# rRNA inh HTS RFP: further read-out of rRNA inh HTS, marked with its call; RFP signal change, %; measured here: RFP humanized mutant strains;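 first replicate; 0 = DMSO median and -100 = no signal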
# Starred values were filed as active, the others as inactive; i = inactive; ? = inconclusive; / = not tested or not shown; + = active, no number.
SMILES,T cruzi inh,Calb FLC,MLL AF4-AF9 inh,FGF22 binding,Beta apoptosis,RanGTP-Impb inh,ALR H2O2 inh,rRNA inh HTS,rRNA inh HTS OD600,rRNA inh HTS RFP
COC(=O)c1ccccc1Nc1cc(C)nc2nc(C)nn12,8.7,2.5,0.4,/,-0.3,-5.5,-9.1,-0.9,-8.1,-0.7
COc1cccc(CN(C)C(=O)CSC(C)C(=O)Nc2cc(C)on2)c1OC (stereo not given),-7.3,-0.4,-0.6,i,-1.2,/,-3.4,5.2,12.9,-2.2
COc1ccc(NS(=O)(=O)c2ccc(OC)c3ccccc23)cn1,0.4,-5.1,/,/,2.1,0.1,-0.6,/,/,/
Cc1ccc(C2(COC(=O)C(C)C)CO2)c(OC(=O)C(C)C)c1 (stereo not given),-27.1,-8.9,-1.2,i,/,2.8,-7.4,/,/,/
NNC(=O)c1ncoc1-c1ccc(Cl)cc1,13.0,-3.6,2.3,i,0.2,0.7,45.9,-1.9,-5.0,-1.1
C=CCN(c1nc(C)c(Br)c(OC)n1)S(=O)(=O)c1ccc(C)cc1,16.5,-2.9,-1.3,i,-2.9,-3.5,-11.9,-5.0,-25.7,0.3
COc1cc(OC)c2c(c1)OC(c1ccc(OC)c(OC)c1)C(O)C2=O (stereo not given),5.8,2.3,-1.2,i,-3.5,?,/,2.6,-0.6,-0.7
O=C1CCCC/C1=N\Nc1ccc(OCc2ccccc2)cc1,25.6,?,6.1,+,3.5,1.0,99.2*,5.4,6.4,-1.5
COc1ccc(OCC(=O)NNC(=O)c2c(-c3ccccc3Cl)noc2C)cc1,14.1,13.1,1.2,i,2.9,7.4,-0.6,14.5,11.3,3.6
C=CCOC(=O)C1=C[C@@H](c2ccc3c(c2)OCO3)C[C@@H](OCCCCO)O1,3.9,16.4,-1.5,i,-4.3,3.0,-2.7,/,/,/
CC1Oc2ccccc2C(=O)N(CC(=O)c2ccc3c(c2)OCCO3)C1=O (stereo not given),-11.1,-9.2,1.0,i,1.9,-0.5,1.1,2.1,0.1,0.9
CC1=C(C(=O)OCC2CCCO2)C(c2ccc(F)cc2)NC(=O)N1 (stereo not given),-3.6,-4.4,-0.4,i,-2.0,/,-24.8,6.1,7.6,-0.8
O=C(OCc1cc2ccccc2[nH]c1=O)c1ccc([N+](=O)[O-])cc1,-6.3,3.7,4.5,i,-4.4,2.4,/,6.4,3.7,-4.7
COc1cccc(NC(=O)c2ccccc2-c2nc(-c3ccc(F)cc3)no2)c1,9.8,7.5,6.2,i,-0.3,-2.0,0.1,-3.5,-1.8,-1.7
O=C(O)COc1ccccc1-c1nc(-c2ccccc2)c(-c2ccccc2)[nH]1,1.7,-1.5,5.7,i,2.4,1.3,97.7*,-46.5,-70.5,-11.0
COc1ccc(C(=O)/C=C/Nc2cccc(O)c2)cc1,-5.8,-3.7,/,/,-4.9,-7.4,-4.7,/,/,/
CCOC(=O)c1cc2c(=O)n3ccccc3nc2n(CC(C)C)c1=NC(=O)c1c(-c2c(F)cccc2Cl)noc1C,49.6,-2.0,/,/,13.2,94.5*,-13.4,/,/,/
COc1ccc(-c2noc(-c3ccccc3C(=O)Nc3cccnc3)n2)cc1,1.7,-4.4,/,/,-2.5,-1.2,-14.4,/,/,/
O=C(c1cnsn1)N1CCC(CO)(Cc2ccc(Cl)cc2)CC1,3.1,-4.9,0.8,i,3.7,5.4,-6.1,-36.3,-30.4,-4.0
Cn1c(=O)oc2cc(S(=O)(=O)NCCC(=O)NC3CCCc4ccccc43)ccc21 (stereo not given),-21.6,-2.2,8.9,i,1.0,-2.9,-7.7,11.6,15.5,5.3
CC(C)CN(C(=O)CN(C)C(=O)Cc1ccccc1Cl)c1c(N)n(CC(C)C)c(=O)[nH]c1=O,-1.1,60.0,-0.4,i,-3.3,-1.7,-5.7,3.7,-4.9,-4.7
COc1ccc(-c2csc(NC(=O)COC(=O)C3=COCCO3)n2)cc1,5.9,-18.8,-1.0,i,-4.7,5.0,-9.0,9.8,13.6,2.9
Cc1ccc(OCCC(=O)OCC(=O)Nc2ccc(Cl)cn2)cc1,-6.6,-5.0,/,/,-4.0,3.8,?,/,/,/
CCc1ccccc1NC(=O)N[C@H](C(=O)O)C(C)C,-8.1,-3.9,/,/,3.3,1.1,-0.2,/,/,/
CCn1c(Cc2ccccc2)nnc1SCC(=O)Nc1nc(C)c(C)s1,10.8,-5.6,/,/,-2.6,0.6,-1.6,/,/,/
CCOC(=O)C1=C(c2ccccc2)N=c2s/c(=C\c3cccc(O)c3)c(=O)n2C1c1cccs1 (stereo not given),21.6,0.1,/,/,20.3,-3.8,-1.4,/,/,/
O=C(c1ccco1)N1CCN(C(c2ccccn2)c2nnnn2C2CCCC2)CC1 (stereo not given),-11.1,3.0,/,/,-2.0,2.7,-1.9,/,/,/
Cn1cccc1C(=O)OCc1cc(-c2ccco2)on1,/,/,-2.5,i,6.9,/,-2.1,1.8,4.4,-2.8
CCc1ccc(N2CC(O)(c3cccs3)[N+]3=C2SCCC3)cc1 (stereo not given),/,-20.5,0.6,i,-1.2,/,-8.1,-13.9,-8.9,1.2
Cc1cc(C)c(-n2c(SCCS(=O)(=O)c3ccc(F)cc3)n[nH]c2=O)c(C)c1,-20.1,2.0,-0.1,/,3.1,2.1,1.6,-10.7,-14.7,1.8
COC(=O)C1=C(C)N(Cc2ccccc2)C(=NCCN2CCOCC2)N[C@H]1CCc1ccccc1,/,/,-1.9,i,2.2,/,-6.9,-5.5,-11.6,3.4
CCS(=O)(=O)NCC(c1ccco1)N1CCN(c2ccccc2F)CC1 (stereo not given),3.1,-0.7,/,/,-3.7,2.0,5.5,/,/,/
Brc1c(CSc2nc3ccccc3s2)nc2ncccn12,-0.7,-10.1,/,/,-10.5,0.7,5.6,/,/,/
COC(=O)Cc1c(O)ccn(CCc2ccccc2)c1=O,-2.7,-6.8,-1.6,i,-2.9,3.4,-10.4,22.6,25.1,1.5
CCCC(=O)Nc1cccc(C(=O)Nc2nccs2)c1,2.0,-8.0,/,/,-1.3,?,-25.1,/,/,/
O=C(CCNS(=O)(=O)c1ccccc1)NCCCSc1ccccc1,-12.5,-4.4,-0.9,i,/,0.3,-1.1,-2.9,-9.9,-0.2
Cc1c(CCC(=O)N2CCC[C@H]2C(=O)O)c(=O)oc2cc3oc4c(c3cc12)CCCC4,8.8,-3.7,/,/,-1.8,-4.6,8.0,/,/,/
COc1ccc(Nc2nc(-c3cccnc3)nc3ccccc23)cn1,2.2,7.5,2.2,i,18.8,-7.8,-11.7,2.4,-1.0,8.7
Cc1ccc(S(=O)(=O)NC(C)(C)CSc2nnc(Nc3ccccc3)s2)cc1,18.0,8.5,/,/,1.2,-4.7,/,/,/,/
O=C(NC1CCS(=O)(=O)C1)/C(=C\c1ccccc1)NC(=O)c1ccccc1 (stereo not given),3.2,-6.7,/,/,-4.5,-2.8,10.9,/,/,/
Cc1ccc(Cl)cc1-n1ncc2c(NNC(=O)c3ccco3)ncnc21,-10.8,0.4,-18.9,i,-4.6,7.4,/,7.8,8.2,5.3
Cc1cccc(OC(C)C(=O)N2CCCN(C)CC2)c1C (stereo not given),8.7,10.4,/,/,-14.1,1.8,-2.0,/,/,/
CN(CC(=O)Nc1ccccc1C(F)(F)F)C(=O)c1ccc(-c2ccc(Cl)cc2)o1,-0.2,-10.6,1.8,i,-1.8,0.4,1.8,-1.6,6.2,-1.1
COc1ccc(S(=O)(=O)N(C)C)cc1NCC(=O)Nc1ccc(F)cc1F,-17.7,-10.8,/,/,2.6,-1.3,3.5,/,/,/
CCOC(=O)NCCOC(=O)Nc1ccc(Cl)cc1,-14.9,-6.1,0.9,i,-8.6,-1.9,-20.9,6.5,3.7,-0.5
COC(=O)c1ccc(COC(=O)c2cccn2C)o1,-0.5,-4.8,-1.6,i,-2.7,-2.5,-0.7,2.3,5.1,0.3
COCCCNC(=O)C1CCC(CNS(=O)(=O)c2ccc3c(c2)N(C(C)=O)CCO3)CC1 (stereo not given),-15.8,-9.7,-2.6,i,-0.4,2.4,-4.3,13.7,10.8,2.2
CCn1nc(C)cc1C(=O)N1CCc2c([nH]c3ccccc23)C1c1cc(F)ccc1F (stereo not given),16.2,16.4,5.5,/,/,-2.7,-24.3,-6.5,0.8,17.6
CC1CCCN(CCCOc2ccc(Cl)cc2Br)C1 (stereo not given),21.2,-7.8,5.3,i,0.8,0.7,-2.3,1.0,-16.1,7.0
O=Cc1c[nH]c2ccc(C(=O)c3ccccc3)cc12,-6.0,-12.9,3.8,i,-6.1,-1.2,4.4,4.2,-8.5,-5.5
Cc1ccccc1S(=O)(=O)Cc1ccc(C(=O)NCCN(CC(C)C)CC(C)C)o1,12.3,-0.3,1.0,i,5.4,-1.3,/,-0.9,4.3,1.5
O=c1c(C(c2ccccc2)c2c(O)nc3n(c2=O)CCCS3)c(O)nc2n1CCCS2,-4.0,0.1,/,/,-7.6,4.7,12.3,/,/,/
CCOC(=O)c1c(NC(=O)CCS(=O)(=O)c2ccccc2)sc2c1CCN(C)C2,49.6,5.9,0.2,i,-12.2,125.5*,-14.1,-0.2,1.2,-0.1
CCCc1ccc(C(C)NC(=O)c2cnccn2)cc1 (stereo not given),-30.1,7.9,/,/,2.8,4.0,-5.6,/,/,/

# These rows are one share of the data. The share of hits here may be higher or lower than overall.
